FGF22 binding: binders of recombinant human FGF22 by thermal shift | SYPRO orange fluorescence; percent of sucrose octasulfate shift, DMSO zero | Q9HCT0 | AID 651658 | calls only at 9.99 µM | hit rate 1.5% among 340,000;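 active = melting point raised past a set limit in the mean and every replicate; three in four hits are not shown here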
Target sequence (Q9HCT0 whole entry, looked up): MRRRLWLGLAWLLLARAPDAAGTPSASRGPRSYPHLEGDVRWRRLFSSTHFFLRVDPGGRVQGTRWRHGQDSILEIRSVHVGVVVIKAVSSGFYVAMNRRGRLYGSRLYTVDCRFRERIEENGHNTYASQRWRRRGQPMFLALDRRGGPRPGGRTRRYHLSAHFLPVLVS
Ecoli rRNA inh: inhibitors of bacterial rRNA selective over humanized ribosomes; GFP signal change (wild-type ribosome), % (concentration not given with the values); hit rate 1.6% among 350,000; AID 720706; E. coli WT GFP vs humanized-ribosome RFP mutants, fluorescence, 24 h; hits give low values; DMSO median 0, no signal -100;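 active = significant combined selectivity score with lowered wild-type GFP, culture density cut under 30%, mutant RFP and density less affected; inactive = any of these conditions unmet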; also: one replicate is shown; some compounds called inactive have numbers as strong as hits
Ecoli rRNA inh OD600: recorded beside Ecoli rRNA inh, whose call it bears; OD600 change, %; measured here: OD600 growth;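 optical density of the mix in the first replicate; 0 = DMSO median and -100 = no signal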
Ecoli rRNA inh RFP: further read-out of Ecoli rRNA inh, marked with its call; RFP signal change, %; measured here: RFP humanized mutant strains;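 first replicate; 0 = DMSO median and -100 = no signal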
The depositor's hits bear a star; i = inactive. Some of the compounds tested; the hit share may differ from the screen's.

SMILES,FGF22 binding,Ecoli rRNA inh,Ecoli rRNA inh OD600,Ecoli rRNA inh RFP
C[C@H]1CN([C@@H](C)CO)C(=O)c2cc(-c3ccccc3F)cnc2O[C@H]1CN(C)C(=O)C1CCCCC1,i,-0.4,-4.4,2.2
CO[C@@H]1CN(C)C(=O)c2ccc(NC(=O)Nc3ccccc3F)cc2OC[C@H](C)N(C)C[C@@H]1C,i,2.6,0.0,2.3
CNC(=O)C[C@@H]1CC[C@@H]2[C@@H](COc3ccc(NC(=O)NCc4ccccc4)cc3C(=O)N2C)O1,i,3.6,5.4,-2.5
CN(C)C(=O)c1cccc(-c2ccc3c(c2)[C@@H]2[C@@H](CCN2C(=O)c2cccc(F)c2)[C@H](CO)N3C)c1,i,-3.3,-1.6,0.8
CC1CCN(C(=O)c2ncn3c2C(=O)NC[C@H]3C)CC1,i,13.8,1.4,3.0
C[C@@H]1CN([C@H](C)CO)C(=O)c2cc(N(C)C)ccc2O[C@H]1CN(C)C(=O)Nc1ccc2c(c1)OCO2,i,3.1,3.7,-2.4
C[C@H](CO)N1C[C@H](C)[C@H](CN(C)S(=O)(=O)c2ccc(Cl)cc2)Oc2c(NC(=O)c3ccncc3)cccc2C1=O,i,-8.9,-4.5,-1.1
C[C@@H]1CN([C@H](C)CO)C(=O)c2cc(NC(=O)NC3CCCCC3)ccc2O[C@@H]1CN(C)C(=O)Nc1ccccc1,i,-0.4,-0.4,-2.5
CCCC#Cc1cnc2c(c1)C(=O)N([C@@H](C)CO)C[C@H](C)[C@H](CN(C)C(=O)Nc1cc(F)ccc1F)O2,i,3.7,30.3,1.9
COC(=O)C[C@@H]1CC[C@H]2[C@@H](COc3ccc(NC(=O)Nc4cccc(C#N)c4)cc3C(=O)N2C)O1,i,-2.1,1.9,-2.5
CC(C)NC(=O)Nc1ccc2c(c1)C(=O)N([C@@H](C)CO)C[C@H](C)[C@@H](CN(C)C(=O)c1ccccc1)OCCCC[C@@H](C)O2,i,-0.7,-5.9,-0.3
C[C@@H]1CN([C@H](C)CO)C(=O)c2cc(C3=CCCC3)cnc2O[C@H]1CN(C)C(=O)Nc1ccc(F)cc1,i,0.3,-2.4,-1.4

Another view of part of the listing above:
Below each SMILES – FGF22 binding	Ecoli rRNA inh	Ecoli rRNA inh OD600	Ecoli rRNA inh RFP
C[C@@H]1CN([C@H](C)CO)C(=O)c2cc(N(C)C)ccc2O[C@H]1CN(C)C(=O)Nc1ccc2c(c1)OCO2
  i	3.1	3.7	-2.4
C[C@@H]1CN([C@H](C)CO)C(=O)c2cc(C3=CCCC3)cnc2O[C@H]1CN(C)C(=O)Nc1ccc(F)cc1
  i	0.3	-2.4	-1.4
CC(C)NC(=O)Nc1ccc2c(c1)C(=O)N([C@@H](C)CO)C[C@H](C)[C@@H](CN(C)C(=O)c1ccccc1)OCCCC[C@@H](C)O2
  i	-0.7	-5.9	-0.3

New compounds follow
SMILES,FGF22 binding,Ecoli rRNA inh,Ecoli rRNA inh OD600,Ecoli rRNA inh RFP
COc1ccc2c3c(n(C)c2c1)[C@H](CO)N(C(=O)Cc1ccccn1)CC31CN(CC2CCOCC2)C1,i,5.1,8.4,-3.7
CC=Cc1ccc2n(c1=O)C[C@@H]1[C@@H](CO)[C@H](C(=O)NC3Cc4ccccc4C3)N(CC3CCCC3)[C@H]21 (mixture of isomers),i,-10.6,-35.0,28.6
C[C@H]1CN([C@@H](C)CO)C(=O)c2cccc(NC(=O)c3ccncc3)c2O[C@@H]1CN(C)C(=O)Nc1cccc2ccccc12,i,6.1,8.7,-1.6
C[C@@H]1CN([C@@H](C)CO)S(=O)(=O)c2ccc(C#CC3(O)CCCC3)cc2O[C@H]1CN(C)C(=O)Nc1cccc(F)c1,i,-2.0,-17.0,-1.1
CO[C@@H]1CN(C)C(=O)c2ccc(NS(=O)(=O)c3cn(C)cn3)cc2OC[C@H](C)NC[C@H]1C,i,5.0,10.4,-0.8
CO[C@@H]1CN(C)C(=O)c2ccc(NS(=O)(=O)c3ccccc3)cc2OC[C@@H](C)N(C(=O)NC(C)C)C[C@H]1C,i,1.1,2.9,0.0
COc1ccc(-c2cnc3c(c2)C(=O)N([C@@H](C)CO)C[C@H](C)[C@@H](CN(C)C(=O)NC2CCCC2)O3)cc1,i,2.3,-5.0,1.2
COc1ccccc1C(=O)N1C[C@H]2[C@@H](c3ccccc31)[C@@H](CO)N2Cc1ccc(F)cc1,i,-7.3,-13.0,3.9
C[C@@H]1CCCCO[C@H](CN(C)Cc2ccccc2)[C@H](C)CN([C@@H](C)CO)C(=O)c2cc(NS(=O)(=O)c3ccccc3)ccc2O1,i,0.7,-5.5,1.7
CO[C@H]1CN(C)C(=O)c2ccc(NC(=O)c3cccc(F)c3)cc2OC[C@H](C)N(C)C[C@@H]1C,i,0.7,-8.6,-0.5
COc1ccc(S(=O)(=O)N(C)C[C@@H]2Oc3c(NC(=O)Nc4ccc(F)cc4)cccc3C(=O)N([C@H](C)CO)C[C@@H]2C)cc1,i,-4.4,-11.8,-3.0
CO[C@@H]1CN(C)C(=O)c2ccc(NC(=O)C3CCOCC3)cc2OC[C@H](C)N(CC2CC2)C[C@H]1C,i,2.1,7.3,-4.7
Cn1cnc(S(=O)(=O)N2C[C@@H](O)COC[C@H]3O[C@@H](CC(=O)N4CCN(c5ccccc5)CC4)CC[C@@H]32)c1,i,2.9,12.6,0.3
C[C@@H]1CN([C@@H](C)CO)C(=O)c2cc(N(C)C)ccc2O[C@H]1CN(C)C(=O)Nc1ccc(C(F)(F)F)cc1,i,-11.1,-11.4,-1.6
CO[C@H]1CN(C)C(=O)c2ccc(NC(=O)C3CC3)cc2OC[C@H](C)N(Cc2cccnc2)C[C@@H]1C,i,0.4,5.3,-4.0
COc1ccc(C#Cc2ccc3c(c2)O[C@H](CN(C)C(C)=O)[C@@H](C)CN([C@@H](C)CO)S3(=O)=O)cc1,i,-15.1,-43.8,17.7
C[C@@H]1CN([C@H](C)CO)C(=O)Cc2cc(NS(=O)(=O)c3cccs3)ccc2O[C@H]1CN(C)C(=O)Nc1ccc2c(c1)OCO2,i,2.6,9.4,-1.3
C[C@@H]1CN([C@@H](C)CO)C(=O)c2cc(NC(=O)C3CCCCC3)ccc2O[C@@H](C)CCCCO[C@H]1CN(C)C(=O)CCCN(C)C,i,0.4,4.0,-2.4
CC(C)NC(=O)N(C)C[C@@H]1Oc2ccc(NS(=O)(=O)c3ccc(F)cc3)cc2C(=O)N([C@H](C)CO)C[C@@H]1C,i,0.7,-0.9,-1.5
CN1C(=O)c2cc(NC(=O)c3ccc4c(c3)OCO4)ccc2OC[C@H]2O[C@H](CC(=O)O)CC[C@H]21,i,5.8,18.2,-0.1
COc1ccc(S(=O)(=O)Nc2ccc3c(c2)CC(=O)N([C@@H](C)CO)C[C@H](C)[C@@H](CN(C)Cc2ccc(C(F)(F)F)cc2)O3)cc1,i,-0.7,3.8,1.5
Cc1ccc(S(=O)(=O)Nc2ccc3c(c2)CC(=O)N([C@@H](C)CO)C[C@H](C)[C@H](CN(C)S(=O)(=O)c2ccc(F)cc2)O3)cc1,i,2.3,0.0,0.1
Cc1noc(C)c1NC(=O)N(C)C[C@H]1Oc2ccc(NC(=O)Nc3ccccc3)cc2CC(=O)N([C@@H](C)CO)C[C@@H]1C,i,0.1,6.6,0.3
COc1cccc(S(=O)(=O)N[C@@H]2CC[C@@H](CCNC(=O)Cc3ccncc3)O[C@@H]2CO)c1,i,2.3,5.2,0.3
COc1ccc(S(=O)(=O)Nc2ccc3c(c2)C(=O)N([C@@H](C)CO)C[C@H](C)[C@@H](CN(C)S(=O)(=O)c2cn(C)cn2)O3)cc1,i,6.3,8.9,-0.1
CN1CCN(C(=O)C[C@H]2C=C[C@H](NS(=O)(=O)c3cccc(F)c3)[C@H](CO)O2)CC1,i,-0.4,0.4,-4.2
COc1ccc(C#Cc2cnc3c(c2)C(=O)N([C@H](C)CO)C[C@@H](C)[C@@H](CN(C)C(C)=O)O3)cc1,i,-0.4,3.9,-4.9
COc1ccc(S(=O)(=O)N(C)C[C@H]2Oc3ccc(NC(=O)Nc4cccc5ccccc45)cc3CC(=O)N([C@H](C)CO)C[C@H]2C)cc1,i,1.5,6.2,1.6
C[C@H]1CN([C@@H](C)CO)C(=O)c2cccc(NC(=O)c3cnccn3)c2O[C@@H]1CN(C)Cc1ccc2c(c1)OCO2,i,1.1,1.3,-0.5
C[C@H]1CN([C@@H](C)CO)C(=O)Cc2cc(NC(=O)CCC(F)(F)F)ccc2O[C@H]1CN(C)C(=O)Nc1ccc(C(F)(F)F)cc1,i,2.5,0.3,-1.9
O=C(C[C@@H]1CC[C@@H]2[C@H](COC[C@@H](O)CN2C(=O)Nc2ccc(Cl)c(Cl)c2)O1)NCc1ccc(Cl)c(Cl)c1,i,-54.5,-71.5,-11.9
C[C@H]1CN([C@@H](C)CO)C(=O)CCCn2cc(nn2)CO[C@H]1CN(C)S(C)(=O)=O,i,0.2,5.5,-3.5
COC(=O)C[C@H]1CC[C@H]2[C@@H](COc3ccc(NC(=O)Nc4ccc(C)cc4)cc3C(=O)N2C)O1,i,-7.1,-11.4,1.4
O=C(C[C@@H]1CC[C@@H]2[C@H](COC[C@@H](O)CN2Cc2cccc(Cl)c2)O1)Nc1nccs1,i,-1.9,-7.5,1.8
COc1ccc(NC(=O)Nc2ccc3c(c2)[C@@H]2C[C@@H](CC(=O)NCc4ccncc4)O[C@H](CO)[C@@H]2O3)cc1,i,1.5,5.5,-1.3
C[C@@H]1CCCCO[C@@H](CN(C)S(=O)(=O)c2cn(C)cn2)[C@H](C)CN([C@@H](C)CO)C(=O)c2cc(NC(=O)Nc3ccc4c(c3)OCO4)ccc2O1,i,-2.0,-0.3,-0.5
C[C@@H]1CN([C@@H](C)CO)C(=O)c2cc(C3=CCCCC3)cnc2O[C@@H]1CN(C)Cc1ccccc1,i,-2.7,-8.3,1.1
Cc1ccccc1S(=O)(=O)NCC[C@H]1CC[C@@H](NC(=O)C2CCOCC2)[C@@H](CO)O1,i,-2.0,1.2,3.7
Cc1ccccc1-c1cnc2c(c1)C(=O)N([C@H](C)CO)C[C@H](C)[C@H](CN(C)C(=O)CN(C)C)O2,i,10.0,12.4,1.5
C[C@H](CO)N1C[C@H](C)[C@H](CN(C)CC2CCCCC2)OCCCC[C@H](C)Oc2ccc(NS(=O)(=O)c3ccc(Cl)cc3)cc2C1=O,i,0.3,-13.0,17.2
CN(C)C(=O)C[C@H]1C[C@H]2c3cc(NC(=O)Nc4ccc(F)cc4)ccc3O[C@H]2[C@@H](CO)O1,i,1.9,8.0,0.1
O=C(C[C@@H]1CC[C@H](NC(=O)Nc2ccc3c(c2)OCO3)[C@@H](CO)O1)NCc1ccc2c(c1)OCO2,i,1.2,0.6,-6.0
C[C@@H]1CCCCO[C@H](CN(C)C(=O)C2CCCCC2)[C@@H](C)CN([C@@H](C)CO)C(=O)c2cc(NS(=O)(=O)c3cccs3)ccc2O1,i,-6.0,-8.1,2.1
C[C@@H]1CN([C@H](C)CO)C(=O)c2cc(NC(=O)Nc3cccc4ccccc34)ccc2O[C@@H](C)CCCCO[C@H]1CN(C)S(=O)(=O)c1cn(C)cn1,i,-3.4,-5.1,-0.3
O=C(C1CCCCC1)N1CC2(C1)[C@H](c1ccccc1)[C@H](CO)N2CCC(F)(F)F,i,-6.5,-7.0,-1.2
Cc1ccc(S(=O)(=O)Nc2cccc3c2O[C@H](CN(C)C)[C@@H](C)CN([C@H](C)CO)C3=O)cc1,i,-1.1,-4.0,-1.0
COc1ccccc1C#Cc1ccc([C@@H]2[C@@H](CO)N3CCCCN(CCC(F)(F)F)C[C@H]23)cc1,i,-55.7,-76.5,-6.6
N#C[C@@H]1[C@H](c2ccccc2-c2ccc(F)cc2)[C@@H](CO)N1c1ncc(-c2ccccc2)s1,i,0.2,10.4,-4.2
Cc1ccc(S(=O)(=O)Nc2ccc3c(c2)CC(=O)N([C@H](C)CO)C[C@H](C)[C@@H](CN(C)Cc2ccc(C(=O)Nc4ccccc4N)cc2)O3)cc1,i,-3.0,-3.8,-1.9
COCC#Cc1ccc2c(c1)O[C@@H](CN(C)C(=O)C1CC1)[C@@H](C)CN([C@@H](C)CO)S2(=O)=O,i,0.1,2.6,-1.8
CCCC#Cc1ccc([C@H]2[C@@H](C#N)N(C(=O)C3CC3)[C@@H]2CO)cc1,i,-0.6,-10.5,2.3
CC(C)C#Cc1ccc2c(c1)O[C@@H](CN(C)C(=O)c1ccccn1)[C@@H](C)CN([C@@H](C)CO)S2(=O)=O,i,-1.0,-5.6,-2.1
O=C(Cc1ccccn1)N[C@@H]1CC[C@@H](CCn2cc(-c3ccccc3)nn2)O[C@H]1CO,i,-1.9,-12.4,-4.0
C[C@@H]1CN([C@@H](C)CO)C(=O)c2cc(C#CCN(C)C)cnc2O[C@H]1CN(C)S(=O)(=O)c1cn(C)cn1,i,7.4,8.8,-4.2
C[C@@H]1CN([C@H](C)CO)C(=O)c2c(c3ccccc3n2C)-c2ccccc2CO[C@@H]1CN(C)C(=O)Nc1cccc(F)c1,i,3.2,2.8,2.7
O=C(C[C@H]1CC[C@@H](NC(=O)NC2CCCCC2)[C@H](CO)O1)NCc1ccccc1,i,0.8,-5.2,-0.5
